PTPN22 act: LYP phosphatase activators, primary screen, biochemical, DiFMUP fluorescence, 2 µM | Tyrosine-protein phosphatase non-receptor type 22 (Homo sapiens), Q9Y2R2 | recombinant LYP; 0 = plate median, 100 = signal doubled | activation, % at 2 µM | hit rate 0.11% among 96,000 | AID 697, 2007;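 active = activation at 2 µM above a set limit, the mean plus 5 SD, cut at about 37% in these data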
PostGolgi yeast: phenotypic screen on post-Golgi transport, primary screen | post-Golgi transport phenotypic cell assay | hit rate 0.9% among 98,000 | inhibition, % at 10 µM;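 note: yeast cells grown in 1536-well plates; yeast grown about 18 h at 30C before absorbance read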
PostGolgi ctrl: growth inhibition of yeast control strain, primary screen, counter-screen for post-Golgi transport modulator project; hit rate 5% among 98,000; efflux-deficient yeast background strain, growth absorbance A615, 16 h; inhibition, % at 10 µM
S1P2 blocker: human S1P2 receptor antagonists, primary screen, cell-based | hit rate 0.21% among 97,000 | cell-based S1P2 antagonist assay, inhibition at 5 uM | AID 736, 2007 | Sphingosine 1-phosphate receptor 2 (Homo sapiens), O95136 | inhibition, % at 5 µM; in the data active = inhibition above about 45%;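 note: CRE beta-lactamase reporter cells expressing human S1P2 stimulated with S1P; 0% = agonist at EC80 alone and 100% = agonist plus reference antagonist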
Target sequence (O95136 whole entry, looked up): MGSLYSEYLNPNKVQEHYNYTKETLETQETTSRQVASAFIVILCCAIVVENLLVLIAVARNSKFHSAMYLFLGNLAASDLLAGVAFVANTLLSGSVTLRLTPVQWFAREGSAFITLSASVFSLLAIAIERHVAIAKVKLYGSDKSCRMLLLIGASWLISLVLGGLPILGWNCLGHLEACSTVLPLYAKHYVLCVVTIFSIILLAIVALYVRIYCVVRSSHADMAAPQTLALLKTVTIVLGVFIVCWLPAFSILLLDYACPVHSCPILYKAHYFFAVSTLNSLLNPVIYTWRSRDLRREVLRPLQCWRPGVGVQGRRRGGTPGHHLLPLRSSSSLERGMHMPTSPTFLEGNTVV
S1P2 ag: S1P2 receptor agonists, primary screen, cell-based; S1P2-expressing cell line, agonist reporter read-out; hit rate 0.46% among 97,000; activation, % at 4.5 µM; AID 729, 2007; in the data active = activation above about 16%;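 note: 0% = vehicle low control and 100% = maximal reference agonist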
EphB4 antag: EphB4-ephrin-B2 interaction antagonists, primary screen, biochemical, TNYL-RAW peptide probe, fluorescence polarization | Ephrin type-B receptor 4 (Homo sapiens), P54760 | hit rate 0.15% among 97,000 | inhibition, % at 7 µM | EphB4 LBD / TNYL-RAW-Alexa532 peptide | AID 720, 2007;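 active = inhibition above the screen-wide mean inhibition plus 3 SD, cut at about 15% in these data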;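 note: 0% = DMSO wells and 100% = excess unlabeled TNYL-RAW peptide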
Rev-RRE block: HIV-1 Rev-RRE binding inhibitors, primary screen, biochemical, FRET, protein-RNA interaction | inhibition, % at 8 µM | hit rate 0.79% among 97,000 | Rev peptide-RRE RNA binding | P05866;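 active = inhibition above the screen-wide mean plus 3 SD, cut at about 35% in these data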;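 note: 0% = median DMSO wells and 100% = median Neomycin B control wells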
Target sequence (P05866 whole entry, looked up): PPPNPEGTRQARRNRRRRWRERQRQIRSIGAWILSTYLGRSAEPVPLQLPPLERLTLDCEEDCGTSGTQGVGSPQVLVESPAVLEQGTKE
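Test system – labelled RRE RNA duplex and labelled Rev peptide · Signal – fluorescein-to-Cy5 FRET, 480 nm excitation · Evaluation – % inhibition of FRET ratio versus controls · Benchmarks – DMSO low control, neomycin B high control · Incubation – 5 min RNA-compound premix plus 15 min binding step, 25 °C · Medium – HEPES pH 7.5 salt buffer with EDTA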
LYP inh 2: PTPN22 phosphatase inhibitors, primary screen, biochemical, DiFMUP fluorescence, 2 µM; Tyrosine-protein phosphatase non-receptor type 22 (Homo sapiens), Q9Y2R2; recombinant LYP catalytic domain; inhibition, % at 2 µM; hit rate 0.21% among 96,000; AID 640, 2007;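 active = inhibition at 2 µM at or above a set limit, the screen mean plus 3 SD, cut at about 24% in these data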;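 note: 0% = DMSO with enzyme and 100% = enzyme fully blocked by orthovanadate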
An asterisk follows results filed as active; . = not tested or not shown. Cut-off read from the data, not from the text of the source, unless noted: active = inhibition above about 30%; inactive = the rest. Some of the compounds tested. The share of hits here may be higher or lower than overall.

Each structure is followed by: LYP inh 2 | S1P2 ag | Rev-RRE block | PostGolgi yeast | PTPN22 act | PostGolgi ctrl | EphB4 antag | S1P2 blocker
COc1ccc(-c2ncncc2-c2csc(C)n2)c(O)c1
    -9 | -8 | 9 | -1 | 6 | 4 | 11 | -6
Cc1cc(C)n(-c2ccc(C(=O)NC(C)C)cc2)n1
    2 | -4 | 6 | 9 | -2 | 5 | 3 | 12
Cc1cc(OCc2nc(-c3ccc(NC(=O)c4cccnc4)cc3)no2)ccc1Cl
    -8 | -4 | 10 | 4 | 6 | -1 | 2 | 15
COc1cc2c(cc1OC)-c1cc(N3CCCCCC3)nc(=O)n1CC2
    5 | 36* | 6 | 1 | -6 | 6 | 7 | -26
COc1cc2c(cc1OC)CN(C(=O)c1ccccc1C(=O)O)CC2
    1 | -3 | 5 | 1 | -2 | 4 | -5 | -7
CCSc1nc2sc3c(c2c2nnc(SCC(=O)NCc4ccco4)n12)CCCC3
    -10 | -2 | 0 | . | 6 | . | -3 | 12
CC(=O)Nc1nc(C)c(Oc2ccc(Cl)cc2Cl)c(=O)[nH]1
    1 | -8 | 2 | 4 | 1 | 16 | 6 | 15
O=C(CSc1nnc2c(n1)[nH]c1ccc(F)cc12)OCc1ccccc1
    -4 | -2 | 12 | -2 | 2 | 0 | -5 | -7
Cc1cccc(NC(=O)CN2C(=O)CNC2=O)c1
    -1 | -3 | 7 | 14 | -2 | 9 | 2 | -25
CCn1c(=O)c(C(C)=O)nc2ccccc21
    7 | -7 | 13 | 6 | -8 | 1 | 6 | -4

A few values from the results shown.
In LYP inh 2, Cc1cc(C)n(-c2ccc(C(=O)NC(C)C)cc2)n1 shows 2
In Rev-RRE block, CCSc1nc2sc3c(c2c2nnc(SCC(=O)NCc4ccco4)n12)CCCC3 shows 0

More structures:
Each structure is followed by: LYP inh 2 | S1P2 ag | Rev-RRE block | PostGolgi yeast | PTPN22 act | PostGolgi ctrl | EphB4 antag | S1P2 blocker
O=C(CCSc1ccccc1)Nc1nc2c(s1)CCCC2
    2 | 1 | 9 | 4 | -4 | 19 | 4 | -1
CC(=O)Nc1cc(-c2nn3c(C)nnc3s2)ccc1C
    -10 | -6 | -1 | 11 | 7 | 1 | 2 | -14
CCc1ccc(NCc2cc3c(C)nn(-c4ccccc4)c3[nH]c2=O)cc1
    5 | -4 | 9 | -5 | -3 | 15 | -2 | 5
COc1cc2c(cc1OC)CN(C(=O)c1cccs1)CC2
    -1 | -4 | -2 | 21 | 0 | 1 | -6 | -11
O=C(O)Cc1csc(NC(=O)c2ccco2)n1
    4 | -3 | 7 | -7 | -2 | -12 | 6 | 1
O=C(CSc1nnc2c3c4c(sc3ncn12)CCCC4)NCc1ccco1
    -14 | -2 | 4 | -4 | 11 | -2 | -1 | -8
O=C(NC1CCCCC1)C(c1ccc(F)cc1)N(C(=O)c1cccs1)c1ccc2c(c1)OCO2 (centres undefined)
    6 | -4 | 3 | -5 | -3 | 10 | 1 | -2
CC(C)(C)NC(=O)CN(C(=O)CCN1CCCc2ccccc21)C(C)(C)C
    2 | -3 | 4 | 3 | -1 | 14 | -6 | -20
Cc1ccc(C(=O)NCCCN2CCOCC2)cc1N1CCCC1=O
    -5 | -1 | 1 | -1 | 3 | 2 | 4 | 15
Cc1ccc2[nH]c(C(=O)O)c(NC(=O)CN3CCN(c4cccc(C)c4C)CC3)c2c1
    7 | -5 | -1 | 0 | -3 | 2 | 1 | 16

Compound profiles (already shown). Values in the order: LYP inh 2, S1P2 ag, Rev-RRE block, PostGolgi yeast, PTPN22 act, PostGolgi ctrl, EphB4 antag, S1P2 blocker
Profile of CC(=O)Nc1cc(-c2nn3c(C)nnc3s2)ccc1C → -10, -6, -1, 11, 7, 1, 2, -14
Profile of CC(C)(C)NC(=O)CN(C(=O)CCN1CCCc2ccccc21)C(C)(C)C → 2, -3, 4, 3, -1, 14, -6, -20
Profile of O=C(CSc1nnc2c3c4c(sc3ncn12)CCCC4)NCc1ccco1 → -14, -2, 4, -4, 11, -2, -1, -8

For convenience, two of the compounds above.
Each structure is followed by: LYP inh 2 | S1P2 ag | Rev-RRE block | PostGolgi yeast | PTPN22 act | PostGolgi ctrl | EphB4 antag | S1P2 blocker
O=C(CCSc1ccccc1)Nc1nc2c(s1)CCCC2
    2 | 1 | 9 | 4 | -4 | 19 | 4 | -1
CC(=O)Nc1cc(-c2nn3c(C)nnc3s2)ccc1C
    -10 | -6 | -1 | 11 | 7 | 1 | 2 | -14

Continuation.
Each structure is followed by: LYP inh 2 | S1P2 ag | Rev-RRE block | PostGolgi yeast | PTPN22 act | PostGolgi ctrl | EphB4 antag | S1P2 blocker
Cc1ccc2[nH]c(=O)c(C(c3nnnn3Cc3ccccc3)N3CCc4ccccc43)cc2c1 (centres undefined)
    15 | -5 | 15 | -8 | -14 | 10 | 1 | 2
Cc1nn(C)c(C)c1N=Cc1c(O)ccc2ccccc12
    8 | -9 | 8 | 22 | -10 | -3 | 8 | 7
Cc1nc2cc(NC(=O)NCc3ccccc3)ccc2o1
    -6 | -7 | 8 | 0 | 10 | 13 | 2 | 19
CCN1CCN(c2cc(-c3ccccc3)nc3cc(-c4cccc(F)c4)nn23)CC1
    -5 | 3 | 4 | . | 4 | . | 2 | -26
Cc1ccc(-c2cnc(NC(=O)CCC(=O)N(C)Cc3ccccc3)n2C)cc1
    -14 | -6 | 6 | -9 | 17 | 12 | 1 | 16
Cc1ccc2cc(C(c3nnnn3Cc3ccccc3)N3CCc4ccccc43)c(=O)[nH]c2c1C (centres undefined)
    -5 | -4 | 5 | 13 | 2 | 7 | -8 | -12
CCOC(=O)c1sc(NC(=O)CSc2ccccn2)c(C#N)c1C
    2 | -6 | 11 | -12 | -3 | 7 | 6 | -10
CCCCNC(=O)CCC(=O)Nc1ncc(-c2ccc(C)cc2)n1C
    -1 | -7 | 2 | -5 | -1 | 9 | 5 | 16
CN(c1ccccc1)c1nc(N2CCCC2)nc(-n2ccnc2)n1
    -1 | -4 | 7 | 105* | -1 | 91* | -6 | 2
O=C(NCCCO)Nc1ccc2nc(-c3ccco3)c(-c3ccco3)nc2c1
    13 | -2 | -2 | 2 | -11 | 10 | 0 | 2
CCC(=O)Nc1cc(-c2nn3c(C)nnc3s2)ccc1C
    -23 | -2 | 9 | 3 | 22 | 2 | 0 | 9
O=C(C1COc2ccccc2O1)N1CCCC1 (centres undefined)
    -6 | -3 | 11 | 1 | 2 | 3 | 5 | 5

High-throughput results from PubChem BioAssay.
